CDC25B-CDK2 inh = human CDC25B-CDK2/CyclinA binding inhibition | P30305+P24941 | HTRF CDC25B-CDK2/CyclinA binding, anti-His/anti-Flag; stronger effect = higher value | z-score (no concentration beside the values) | 94,000 compounds, 0.72% hits | AID 1259370;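 note: score is relative to mean and SD of negative controls; strong numbers were not always called active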
TAR Tat displ = HIV-1 TAR-Tat binding disruption; 100,000 compounds, 0.6% hits; z-score (test concentration not listed); HIV-1 TAR RNA, Tat peptide displacement FRET; stronger effect = higher value;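 note: score is relative to mean and SD of negative controls; some compounds called inactive have numbers as strong as hits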
An asterisk follows results filed as active; nt = not tested or not shown.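 Rule for the calls: active = z-score from 3 up in half or more of its runs; inactive = the rest.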

SMILES	CDC25B-CDK2 inh	TAR Tat displ
O=C(Nc1cccc(Cl)c1)c1c2c(nc3ccccc13)C(=O)N(C1CCCCC1)C2	nt	0.12
Cc1nc(SCC(=O)Nc2nnc(C)s2)c2c(=O)n(C)c(=O)n(C)c2n1	nt	1.42
Cc1ccc(SC(=O)c2csnn2)cc1	-3.09	nt
O=C(CCc1ccccc1)N1CCC(c2ccccc2)C1 (configuration not stated)	-1.52	1.78
Cn1c(C(=O)NCc2ccccn2)cc2oc3ccccc3c21	-1.2	2.07
Cc1cc(=O)n2c(C(=O)Nc3ccc(Br)cc3)c(C(=O)Nc3ccccc3)sc2n1	-6.58	2.42
CC(C)(C)c1cc(N)n(-c2ccc(C(=O)O)cc2)n1	-1.6	0.59
c1ccc(-c2onc3ccc(C4OCCO4)cc23)cc1	-1.56	nt
CCCCN1C(=O)C(O)(c2c[nH]c3ccccc23)c2ccccc21 (configuration not stated)	0.47	0.87
CCCCCCCOC(=O)C1=C(C)Nc2ncnn2C1c1ccc(O)cc1 (configuration not stated)	-0.28	1.38
COc1ccc(Br)cc1[C@@H]1Nc2ccc(C(=O)O)cc2[C@@H]2C=CC[C@@H]21	0.18	-0.96
Cc1ccc2c(c1)c1c(n2C)C(=O)CCC1	0.29	nt
CCN1CCCC1CNC(=O)c1c2c(nc3ccccc13)C(=O)N(C1CCCCC1)C2 (configuration not stated)	nt	-0.29
Cc1cc(C)c(C)c(Oc2ccc(Cl)nn2)c1	-1.03	1.3
Cc1ccc(Nc2c(C)c(C)nc3ncnn23)c(Cl)c1	nt	0.15
O=C(CC1(O)C(=O)N(Cc2ccccc2)c2ccccc21)c1ccc2c(c1)CCCC2 (configuration not stated)	1.07	nt
CCOC(=O)Cn1c(C)nc2c(C(=O)Nc3ccccc3)sc(C)c2c1=O	0.56	nt
Cc1nc(-c2cccs2)c(CC(=O)Nc2ccc(Br)cc2)s1	-1.74	0.18
COc1ccc(OC)c(NC(=O)C2C3CCC(O3)C2C(=O)O)c1 (configuration not stated)	-0.57	0.63
Cc1cc(C)nc(SCCn2c(N3CCN(C)CC3)nc3c2c(=O)n(C)c(=O)n3C)n1	-1.34	-0.38
Cc1ccc(-c2ccc(=O)[nH]n2)cc1S(=O)(=O)N1CCCC(C)C1 (configuration not stated)	-0.51	0.98
CC(C)CC(NC(=O)CCN)C(=O)O (configuration not stated)	nt	2.03
CSc1ccc(CCN=C2NS(=O)(=O)C(c3ccc(C)cc3)=C2C)cc1	-3.09	-1.09
COc1cccc(NC(=O)C2CC3CCCN3C23C(=O)Nc2ccccc23)c1 (configuration not stated)	nt	0.47
CN(C)CCCNCc1ccc2c(c1)n(C)c(=O)n2C	-0.77	0.37
O=S(=O)(c1cc(F)ccc1F)N1CCC(N2CCOCC2)CC1	nt	1.68
CCCCOC(=O)CCc1n[nH]c(=O)[nH]c1=O	0.48	0.2
Cc1ccc(S(=O)(=O)c2c[nH]c3ccc(Cl)cc3c2=O)cc1F	-6.37	0.94
O=C(NCCCN1CCOCC1)C1CCN(S(=O)(=O)N2CCOCC2)CC1	nt	1.98
Cc1ccc(S(=O)(=O)N2CCN(S(=O)(=O)N3CCOCC3)CC2)c(C)c1	-0.24	0.69
CCOC(=O)c1c(N)sc(C(=O)NC2CCCCC2)c1C	nt	1.26
CCCCn1c(SCC(=O)Nc2cc(C)[nH]n2)nc2ccsc2c1=O	-0.44	nt
CC(=O)OCCN1C(=O)c2cccc3cccc(c23)C1=O	-1.7	nt
O=C(NCCn1nc(-c2ccccc2)oc1=O)Nc1ccc(Cl)cc1	-1.61	0.25
Cc1ccc(S(=O)(=O)NCCCN(C)C)cc1	0.64	2.17
Brc1ccc2c(c1)C1CC(c3ccco3)=NN1C(c1ccccc1)O2 (configuration not stated)	0.34	-3.41
COC(=O)c1c(NC(=O)Cn2cnc([N+](=O)[O-])n2)sc2c1CCC(C)C2 (configuration not stated)	nt	2.01
CCOC(=O)C(Nc1ccccc1)C(=O)OCC	-2.4	nt
Cc1ccc2cc(NC(=O)c3cccs3)ccc2n1	2.21	nt
CCOC(=O)C1CCN(S(=O)(=O)c2cc3c4c(c2)C(C)C(=O)N4CCC3)CC1 (configuration not stated)	nt	1.33
CSc1ccc(-c2nc3nc[nH]n3c2Nc2c(C)cccc2C)cc1	-1.28	1.06
c1ccc(CN2CCN(c3nc4ccccc4n4cnnc34)CC2)cc1	0.19	0.6
COc1cc(Br)cc2cc3c(=O)n(-c4ccccc4)nc-3oc12	-0.55	1.85
O=C(CCCc1nc(-c2ccco2)no1)Nc1ccncc1	-2.06	4.22*
COC(=O)c1c(C)oc2ccc(OCC(=O)c3ccc(Br)cc3)cc12	-2.66	0.36
O=C(CCN1C(=O)c2cccc3cccc(c23)C1=O)OCCCc1ccncc1	-0.74	nt
CCOC(=O)c1cn[nH]c1S(=O)(=O)Nc1cccc(SC)c1	nt	0.1
O=C(C1CC1)N1CCc2cc(Br)cc(S(=O)(=O)NCC3COc4ccccc4O3)c21 (configuration not stated)	-1.08	0.59
CC(=O)NC1=NN(C(C)=O)C(c2cc(Br)ccc2OCCOc2ccc(C)cc2)S1 (configuration not stated)	-1.4	2.01
O=C1CSc2ccc(S(=O)(=O)N3CCOCC3)cc2N1Cc1ccccn1	nt	1.29
Cc1ccc(C(=O)N(Cc2nc(-c3ccc(C)cc3)no2)C(C)C)cc1	-0.52	nt
CC(C)OCCCNc1c(-c2ccc3c(c2)OCC(=O)N3)c(=O)c1=O	nt	-0.2
Cn1c(SCC(=O)Nc2ccc(Cl)cc2)nc2c(c1=O)SCC2	-1.05	-0.39
COCCOC(=O)C1=C(C)NC2=C(C(=O)CC(C)(C)C2)C1c1ccc(OC)c(OC)c1 (configuration not stated)	-0.22	0.57
Cc1ccc(C)c(N2CCN(Cc3noc4ccccc34)CC2)c1	nt	2.12
Cc1ccc(-c2nnc3sc(CCc4ccccc4)nn23)cc1	-0.46	0.38
Cn1c(SCC(=O)NC2CCCCC2)ncc(C(=O)Nc2ccccc2)c1=O	nt	0.3
O=C(Nc1ccccc1)Oc1cccc(F)c1OC(=O)Nc1ccccc1	-0.36	nt
CC1=C(c2cccc(Cl)c2)S(=O)(=O)N=C1Nc1ccc(C)c(C)c1	-5.03	0.02
COc1ccc(OCc2nnc3n2N=C(c2ccc(OC)c(OC)c2)CS3)cc1	nt	-0.35

Full records, looked up by structure. Screens in order: CDC25B-CDK2 inh	TAR Tat displ
c1ccc(CN2CCN(c3nc4ccccc4n4cnnc34)CC2)cc1 across the screens: 0.19	0.6
COC(=O)c1c(C)oc2ccc(OCC(=O)c3ccc(Br)cc3)cc12 across the screens: -2.66	0.36
Cc1ccc(C(=O)N(Cc2nc(-c3ccc(C)cc3)no2)C(C)C)cc1 across the screens: -0.52	nt
Cn1c(SCC(=O)Nc2ccc(Cl)cc2)nc2c(c1=O)SCC2 across the screens: -1.05	-0.39
CC1=C(c2cccc(Cl)c2)S(=O)(=O)N=C1Nc1ccc(C)c(C)c1 across the screens: -5.03	0.02

(listing goes on)
SMILES	CDC25B-CDK2 inh	TAR Tat displ
Cc1noc2nc(CCC(=O)O)[nH]c(=O)c12	-1.55	-0.53
COc1ccc(S(=O)(=O)n2nc(-c3ccccc3OC)cc2N)cc1OC	-2.28	nt
Nc1c2c(nc3ccccc13)N(C1CCCCC1)CC2	-1	nt
O=S(=O)(NCC(c1ccccc1)n1cc(-c2ccccc2)nn1)c1ccc(Cl)cc1 (configuration not stated)	-0.81	4.84
Fc1ccc(-c2nc3c4c5c(sc4ncn3n2)CCCC5)cc1	0.51	4.44
Cn1cccc1-c1n[nH]c(=S)n1-c1ccc(Cl)cc1Cl	-0.11	nt
N#Cc1c(Cl)cccc1NCc1cccs1	-0.24	nt
Cc1ccc(NC(=S)Nc2ccccn2)cc1C	-0.56	nt
CN(c1ccc(Br)cc1)c1c(-c2ccccc2)c(=O)c1=O	nt	1.04
COc1ccccc1NCc1cccn1-c1nnc(N2CCN(C)CC2)s1	nt	2.74
CC1CCCCN1CCNS(=O)(=O)c1cc2c(cc1Cl)NC(=O)CO2 (configuration not stated)	nt	-0.46
O=C(Nc1ccc(S(=O)(=O)Nc2nccs2)cc1)c1sc2ccccc2c1Cl	-2.47	-0.53
CN(C)S(=O)(=O)c1ccc(C(=O)Nc2nnc(-c3ccc(Br)cc3)s2)cc1	-2.96	0.39
Cc1ccc(N2C(=O)SC(Nc3ccc(C(=O)O)cc3)C2=O)cc1 (configuration not stated)	0.33	0.75
COc1ccc(NC2=NS(=O)(=O)C(c3cccc(Br)c3)=C2C)c(OC)c1	-3.99	-0.44
O=S(=O)(c1ccc2c(c1)CCCC2)N1CCN(Cc2noc3ccccc23)CC1	nt	1.87
CC(C)CCNC(=O)C1(C)Cn2nc(C(=O)NC3CCCCC3)cc2C(=O)N1C (configuration not stated)	nt	-0.3
O=S(=O)(NC1CCCc2ccccc21)c1ccccc1 (configuration not stated)	-1.86	nt
Cc1cn2c(=O)c(S(=O)(=O)N3CCN(c4ccccn4)CC3)c(C)nc2s1	nt	-0.35
CN1CCN(C(=O)CN2C(=O)CCSc3ccccc32)CC1	-2.3	0.67
Cc1ccc(-c2noc3c(=O)[nH]cnc23)cc1	-1.43	-0.79
CCOc1ccc(-n2ccc(=O)c(C(=O)Nc3sc4c(c3C(=O)OC)CCC4)n2)cc1	0.42	-0.77
O=c1c(=S)[nH]ccn1-c1ccccc1	-1.65	2.35
Cc1nc(OCCN(C)C)c2oc3ccccc3c2n1	nt	1.98
O=C(NCc1cccs1)c1cnc2sc(N3CCCC3)nn2c1=O	nt	1
OCCN(CCO)c1ncnc2sc3c(c12)CCCC3	nt	1.13
Cc1cc(C2CCCN2C(=O)c2cnn3c(C(F)(F)F)cc(-c4cccs4)nc23)no1 (configuration not stated)	nt	2.21
CCOc1cc(C2CC(=O)N3CN(C4CCCCC4)CSC3=C2C#N)ccc1O (configuration not stated)	3.38*	0.91
O=c1c(N2CCN(c3cccc(Cl)c3)CC2)csc2ccccc12	nt	1.37
Cn1c(-c2nnc(SCC(=O)N3CCCCC3)o2)cc2ccccc21	-2.22	1.18
CCOC(=O)N/N=C(\C)c1ccc(F)cc1F	2.16	nt
CC(C)(C)C1CCc2onc(C(=O)Nc3ccc(Br)cc3)c2C1 (configuration not stated)	-0.15	nt
COc1ccc2ncc3c(-c4ccccc4)c(C(=O)O)sc3c2c1	-1.9	0.79
Brc1cccc(-c2noc(CCCOc3ccccc3)n2)c1	-0.59	1.16
Cc1ccc(-c2nc(SCc3cc(=O)n4c(C)csc4n3)n3[nH]c(=O)cc3n2)cc1	nt	0.57
COc1ccc(N2CCN(C3CCCCC3NS(=O)(=O)c3ccccc3)CC2)cc1 (configuration not stated)	-2.22	0.76
O=C(Nc1ccc(Cl)cc1)O/N=C1\CCSC1	-1.85	nt
COc1cnc(CSc2ncccn2)cc1OCC(=O)N1CCCc2ccccc21	nt	0.69
Cc1cc(-c2ccc(=O)[nH]n2)cc(S(=O)(=O)Nc2ccc(F)cc2)c1C	nt	2.05
CN1C(=O)C2(/C(=C(/O)c3ccc(F)cc3)C(=O)C(=O)N2CC2CCCO2)c2ccccc21 (configuration not stated)	-0.2	nt
CC(=O)OCC1OC(n2ccc(=O)[nH]c2=O)CC1OC(C)=O (configuration not stated)	-0.53	-0.48
O=C(CCc1ccccc1)Nc1c(-c2cccs2)nc2ccccn12	-0.04	nt
Cc1nc2sc3ccccc3n2c(=O)c1S(=O)(=O)Nc1ccccc1	nt	0.61
Cc1nn(C(=O)c2ccco2)c(C)c1Sc1ccc(Br)cc1	-0.04	-0.42
Cn1c(C(=O)N2CCN(c3ccccc3)CC2)cc2c(=O)n3ccccc3nc21	nt	0.27
CCOc1ccc(C2C(C(=O)OC(C)C)=C(C)NC3=C2C(=O)CC(c2ccccc2)C3)cc1 (configuration not stated)	-0.3	-0.05
C=CCN(c1ccccc1)S(=O)(=O)c1ccc2c(c1)NC(=O)C(C)C(=O)N2 (configuration not stated)	-0.93	0.78
Cn1c(SCC(=O)Nc2ccc3c(c2)OCO3)ncc(C(=O)Nc2ccc(F)cc2)c1=O	nt	0.08
C=CCNc1nc(NCC)c2cnn(C)c2n1	nt	1.26
CC1(C)Cc2nc3sc4c(=O)n(Cc5ccc(Br)cc5)cnc4c3cc2CO1	nt	-0.06
CCOC(=O)C1CCCN(C(=O)CN2CCCn3nc(C)cc32)C1 (configuration not stated)	nt	0.44
O=C(Nc1ccc(Cl)c(Cl)c1Cl)NC1CCSC1 (configuration not stated)	-1.9	nt
COC(=O)c1ccc(COc2ccc3oc(C)c(C(=O)OC)c3c2)cc1	1.16	-0.59
CCC(C)NC(=O)c1noc(C(C)C)c1[N+](=O)[O-] (configuration not stated)	1.22	0.25
O=C1CC(c2cccc(Cl)c2)c2cnn(-c3nc4ccccc4s3)c2N1 (configuration not stated)	nt	2.76
Cc1ccc2c(c1)N(Cc1ccccc1C)C=NS2(=O)=O	nt	0.08
CC1Cc2cc(S(=O)(=O)N3CCOCC3)ccc2N1C(=O)C1CCC1 (configuration not stated)	nt	-0.82

Reformatted as labelled records: entries from further up.
CC1(C)Cc2nc3sc4c(=O)n(Cc5ccc(Br)cc5)cnc4c3cc2CO1
  CDC25B-CDK2 inh: nt	TAR Tat displ: -0.06
CCOC(=O)C1CCCN(C(=O)CN2CCCn3nc(C)cc32)C1 (configuration not stated)
  CDC25B-CDK2 inh: nt	TAR Tat displ: 0.44
O=C(Nc1ccc(Cl)c(Cl)c1Cl)NC1CCSC1 (configuration not stated)
  CDC25B-CDK2 inh: -1.9	TAR Tat displ: nt
COC(=O)c1ccc(COc2ccc3oc(C)c(C(=O)OC)c3c2)cc1
  CDC25B-CDK2 inh: 1.16	TAR Tat displ: -0.59

Compounds shown so far that have a tert-butyl group (2):
SMILES	CDC25B-CDK2 inh	TAR Tat displ
CC(C)(C)c1cc(N)n(-c2ccc(C(=O)O)cc2)n1	-1.6	0.59
CC(C)(C)C1CCc2onc(C(=O)Nc3ccc(Br)cc3)c2C1 (configuration not stated)	-0.15	nt

Source: PubChem BioAssay
